A1 inh: inhibitors of the anti-apoptotic protein A1, read as caspase activation; MEF A1-2A-BIM cells, Caspase-Glo 3/7 luminescence, 3 h; percent of clofoctol response, vehicle zero; caspase activation, % (test concentration not listed); actives 0.066% (n = 330,000); AID 2462;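 active = over half of replicate activation scores above 10%, or exactly half above 10 with the replicate mean above 10; inconclusive = replicate mean below 10 yet half the replicates above 10; inactive = over half of replicates below 10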;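 note: wells of about 30 µL received 50 nL stock; many hits fall short of the cut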
RanGTP-Imp inh: disruptors of Ran-importin-beta complex formation – biochemical, FRET, CFP-Ran, YFP-importin-beta, homogeneous, primary screen | actives 1.1% (n = 300,000) | AID 2216 | inhibition, % (concentration not given with the values) | cell-free CFP-Ran/YFP-importin-beta FRET ratio;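 active = most replicates above 15%; inconclusive = exactly half above 15%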;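 note: 0% = DMSO wells and 100% = Ran loaded with GDP instead of GTP; wells of about 40 µL received 100 nL stock; the first replicate is given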
Vif A3G: inhibitors of Vif binding to APOBEC3G peptide, primary screen, biochemical, TR-FRET, GST-Vif 1-94, biotin-A3G peptide, dose response retest (AID 1117319). inhibition, %; hits with a dose series show IC50 in µM. actives 0.57% (n = 260,000). TR-FRET GST-Vif / biotin-A3G peptide binding; higher % means a stronger effect; test concentration not given here; strong numbers were not always called active;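 active = above the screen mean plus three standard deviations and confirmed in dose response; inconclusive = results disagree or hit not tested in dose response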;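 note: Vif residues 1-94 fused to GST binding biotinylated APOBEC3G peptide 110-148; 0% = full assay without inhibitor and 100% = GST in place of GST-Vif; retest series ran down from 100 µM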
Beta apoptosis: blocks beta cell apoptosis. INS-1E cytokine-induced death, ATP luminescence, 48 h; percent of positive-control rescue, neutral wells zero. protection from apoptosis, % (concentration not given with the values). actives 0.8% (n = 300,000). AID 435005;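 active = all replicates at 75% or more, or half of them and the mean; inconclusive = half reach 75% but not the mean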;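 note: 0% = cytokine-treated negative control wells and 100% = positive control rescue; higher means more ATP so stronger rescue from cytokine killing; wells of about 40 µL received 100 nL stock; the first replicate is given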
AF4-AF9 inh: blocks AF4 peptide binding to human AF9; inhibition, % at 10 µM; AlphaScreen, biotin-AF4 peptide binding to FLAG-AF9; P42568; AID 651704; actives 0.47% (n = 350,000);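 active = every replicate reaching a set inhibition limit, whatever the replicate mean, cut at about 25% in these data; inconclusive = mean inhibition reaches that limit but some replicates miss it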;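 note: 0% = plate neutral control median and 100% = total signal loss; the record names both 10 and 1 µM as test concentration; the first replicate is given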
Target sequence (P42568 whole entry, looked up): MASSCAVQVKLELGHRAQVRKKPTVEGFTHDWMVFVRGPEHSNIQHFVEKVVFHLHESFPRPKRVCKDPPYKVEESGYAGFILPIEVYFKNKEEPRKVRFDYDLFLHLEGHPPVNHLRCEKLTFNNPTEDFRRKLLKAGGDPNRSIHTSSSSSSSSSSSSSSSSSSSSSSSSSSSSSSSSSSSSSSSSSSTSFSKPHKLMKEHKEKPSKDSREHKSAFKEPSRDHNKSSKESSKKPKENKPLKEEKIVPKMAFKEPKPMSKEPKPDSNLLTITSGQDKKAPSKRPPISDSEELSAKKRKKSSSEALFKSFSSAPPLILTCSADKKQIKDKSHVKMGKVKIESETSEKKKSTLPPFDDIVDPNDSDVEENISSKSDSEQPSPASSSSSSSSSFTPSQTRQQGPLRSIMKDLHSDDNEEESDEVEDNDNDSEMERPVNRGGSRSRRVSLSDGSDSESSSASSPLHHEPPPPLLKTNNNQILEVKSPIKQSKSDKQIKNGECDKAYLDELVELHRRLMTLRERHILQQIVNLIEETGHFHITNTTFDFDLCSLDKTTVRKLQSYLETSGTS
Calb FLC: C. albicans growth modulation with fluconazole; C. albicans CaCi-2 (fluconazole-resistant clinical isolate) + fluconazole, Alamar Blue growth, 48 h; growth inhibition, % (test concentration not listed); actives 0.57% (n = 300,000); AID 1979;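 active = most replicates above 75%; inconclusive = exactly half above 75%; inactive = most below 75%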;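 note: all wells also contain fluconazole at 8 µg/ml as a sub-toxic cotreatment; 0% = median of DMSO wells and 100% = median of geldanamycin control wells; wells of about 8 µL received 7.5 nL stock; the first replicate is given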
rRNA inh HTS: inhibitors of bacterial rRNA selective over humanized ribosomes; GFP signal change (wild-type ribosome), % (no concentration beside the values); E. coli WT GFP vs humanized-ribosome RFP mutants, fluorescence, 24 h; active compounds read low; DMSO median 0, no signal -100; actives 1.6% (n = 350,000);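 active = significant combined selectivity score with lowered wild-type GFP, culture density cut under 30%, mutant RFP and density less affected; inactive = any of these conditions unmet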; note: one replicate is shown; some compounds called inactive have numbers as strong as hits
T cruzi inh: T. cruzi replication inhibition | T. cruzi beta-gal in NIH3T3, luminescence, 90 h | inhibition, % (concentration not given with the values) | actives 1.4% (n = 300,000);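 active = mean inhibition across valid replicates above about 55%, limit read from the data; inconclusive = mean below that limit but half or more replicates reach it; inactive = mean below it, under half of replicates reach it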;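 note: signal also drops with host cell toxicity which is not excluded here; 0% = plate median of DMSO wells and 100% = zero luminescence signal; higher percent means less beta-gal luminescence so fewer parasites; stock transfer was 50 nL into about 50 µL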
rRNA inh HTS OD600: further read-out of rRNA inh HTS, marked with its call; OD600 change, %; measured here: OD600 growth;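 optical density of the mix in the first replicate; 0 = DMSO median and -100 = no signal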
rRNA inh HTS RFP: further read-out of rRNA inh HTS, marked with its call; RFP signal change, %; measured here: RFP humanized mutant strains;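 first replicate; 0 = DMSO median and -100 = no signal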
* hit, by the source's call.

Results for COc1cccc(C(=O)NC(=S)Nc2nnn(C)n2)c1 ?
A1 inh: -0.2; RanGTP-Imp inh: 4.1; Vif A3G: inconclusive; Calb FLC: 2; T cruzi inh: -6

Results for COc1ccc(Cc2cnc(N)s2)cc1 ?
A1 inh: 0.6; RanGTP-Imp inh: -2.5; Vif A3G: 16%; Beta apoptosis: -6; AF4-AF9 inh: 1.3; Calb FLC: -1; rRNA inh HTS: -4; T cruzi inh: -10; rRNA inh HTS OD600: -7; rRNA inh HTS RFP: 0.5

How did COc1cc(/C=N/NC(N)=O)cc(Br)c1OCc1ccc(C)cc1 do in these assays?
A1 inh: 1.2; RanGTP-Imp inh: -3.5; Vif A3G: 2%; Beta apoptosis: -6; Calb FLC: 15; T cruzi inh: 7

How did Cc1ccc(/C=N/NC(=O)Cc2ccc(O)cc2)s1 do in these assays?
A1 inh: -0.8; RanGTP-Imp inh: 1.1; Beta apoptosis: -3; AF4-AF9 inh: 3.2; Calb FLC: -2; rRNA inh HTS: 2; T cruzi inh: -15; rRNA inh HTS OD600: 1; rRNA inh HTS RFP: 6.1

What do the screens show for `O=C(CN1C(=O)NC(c2ccccc2)(c2ccccc2)C1=O)NCc1ccc(F)cc1`?
A1 inh: -0.3; Beta apoptosis: -5; AF4-AF9 inh: -2.8; rRNA inh HTS: -14; rRNA inh HTS OD600: -36; rRNA inh HTS RFP: -4.2

Results for NC(=O)CCC(NC(=S)Nc1ccccc1)C(=O)O (stereo not given) ?
A1 inh: -0.6; RanGTP-Imp inh: 2.8; Vif A3G: 10%; Beta apoptosis: 1; AF4-AF9 inh: inconclusive; Calb FLC: 0; rRNA inh HTS: 11; T cruzi inh: -11; rRNA inh HTS OD600: 4; rRNA inh HTS RFP: -2.1

What do the screens show for `COc1ccccc1/C=C/C(=O)OCCCN(C)C`?
A1 inh: 0.1; RanGTP-Imp inh: -2.4; Vif A3G: -9%; Beta apoptosis: 3; AF4-AF9 inh: -0.6; Calb FLC: 5; T cruzi inh: 66*

What do the screens show for `Cc1nc(NC(=O)COc2ccccc2)sc1C(=O)Nc1cccc(Cl)c1`?
A1 inh: -2.4; RanGTP-Imp inh: inconclusive; Vif A3G: -57%; Beta apoptosis: 5; Calb FLC: 19; T cruzi inh: -2

Results for CSc1nc(Cc2ccc(Cl)cc2)nc2ccccc12 ?
A1 inh: 0.5; RanGTP-Imp inh: 1.5; Vif A3G: 5%; Beta apoptosis: 1; Calb FLC: -5; T cruzi inh: 0

Results for COc1ccc(CNC(=O)CCCn2nc(C)n3c(cc4sccc43)c2=O)cc1 ?
A1 inh: -0.4; RanGTP-Imp inh: 7.4; Vif A3G: -2%; Beta apoptosis: -5; AF4-AF9 inh: -1.4; Calb FLC: -5; rRNA inh HTS: 5; T cruzi inh: 18; rRNA inh HTS OD600: -1; rRNA inh HTS RFP: -1.7

How did CN(C)c1ccc(/C=C(/NC(=O)c2ccccc2)C(=O)NCCN2CCOCC2)cc1 do in these assays?
A1 inh: -0.7; RanGTP-Imp inh: -50; Beta apoptosis: -8; AF4-AF9 inh: -1.4; Calb FLC: 17; rRNA inh HTS: 6; T cruzi inh: 9; rRNA inh HTS OD600: 4; rRNA inh HTS RFP: -1.2

How did Clc1c(CSc2nc3ccccc3o2)nc2sccn12 do in these assays?
A1 inh: -5.4; RanGTP-Imp inh: 3.5; Vif A3G: 5%; Beta apoptosis: -8; Calb FLC: -34; T cruzi inh: 34

What do the screens show for `Cc1ccc(OCCNC(=O)/C=C/c2ccc([N+](=O)[O-])cc2)cc1C`?
A1 inh: 0.9; RanGTP-Imp inh: 1.1; Vif A3G: 1%; Beta apoptosis: -1; Calb FLC: -7; T cruzi inh: 10

How did CC(=O)Nc1sc2c(c1C#N)CCCCC2 do in these assays?
A1 inh: -0.8; Vif A3G: inconclusive; Beta apoptosis: 3; Calb FLC: 7; T cruzi inh: -7

What do the screens show for `Cc1cccc(CCNC(=O)CCc2nnc(CCc3ccccc3)o2)n1`?
A1 inh: 0.1; RanGTP-Imp inh: inconclusive; Beta apoptosis: 3; AF4-AF9 inh: -3.2; Calb FLC: -11; rRNA inh HTS: 5; T cruzi inh: -10; rRNA inh HTS OD600: 3; rRNA inh HTS RFP: -1.7

What do the screens show for `O=C(CN(Cc1ccccc1)S(=O)(=O)c1ccc(F)cc1)NCc1cccnc1`?
A1 inh: 0.1; RanGTP-Imp inh: 1.6; Beta apoptosis: -6; AF4-AF9 inh: -0.1; Calb FLC: -2; rRNA inh HTS: -3; T cruzi inh: 0; rRNA inh HTS OD600: -5; rRNA inh HTS RFP: -0.5

How did C=CC[C@H](CC(=O)OC(C)(C)C)C(=O)OC[C@H]1CCCN1C(=O)[C@H](CC=C)CC(=O)NCCO do in these assays?
A1 inh: 0.9; Beta apoptosis: -16; AF4-AF9 inh: -1.3; rRNA inh HTS: 2; rRNA inh HTS OD600: -1; rRNA inh HTS RFP: -2.6

What do the screens show for `Cc1cc(C)c(S(=O)(=O)NCc2ccccn2)c(C)c1`?
A1 inh: 0.6; RanGTP-Imp inh: 2.3; Beta apoptosis: -4; AF4-AF9 inh: -36; Calb FLC: 12; rRNA inh HTS: 22; T cruzi inh: 19; rRNA inh HTS OD600: 7; rRNA inh HTS RFP: 2.8

How did Cc1ccc(S(=O)(=O)N2[C@@H](c3ccccc3)C(C(=O)O)=CC[C@H]2c2cccc(C)c2)cc1 do in these assays?
A1 inh: 0.1; Beta apoptosis: 4; AF4-AF9 inh: 0.0; rRNA inh HTS: 3; rRNA inh HTS OD600: 12; rRNA inh HTS RFP: 0.3

Results for COC(=O)CSCC(=O)Nc1cc2c(cc1C(C)=O)OCO2 ?
A1 inh: 1.0; RanGTP-Imp inh: -1.3; Vif A3G: 11%; Beta apoptosis: -1; Calb FLC: 1; T cruzi inh: -3

3 structures already listed, sorted by SMILES length, smallest number first:
Results for COc1cccc(C(=O)NC(=S)Nc2nnn(C)n2)c1 ?
A1 inh: -0.2; RanGTP-Imp inh: 4.1; Vif A3G: inconclusive; Calb FLC: 2; T cruzi inh: -6

Results for COc1ccc(CNC(=O)CCCn2nc(C)n3c(cc4sccc43)c2=O)cc1 ?
A1 inh: -0.4; RanGTP-Imp inh: 7.4; Vif A3G: -2%; Beta apoptosis: -5; AF4-AF9 inh: -1.4; Calb FLC: -5; rRNA inh HTS: 5; T cruzi inh: 18; rRNA inh HTS OD600: -1; rRNA inh HTS RFP: -1.7

What do the screens show for `O=C(CN(Cc1ccccc1)S(=O)(=O)c1ccc(F)cc1)NCc1cccnc1`?
A1 inh: 0.1; RanGTP-Imp inh: 1.6; Beta apoptosis: -6; AF4-AF9 inh: -0.1; Calb FLC: -2; rRNA inh HTS: -3; T cruzi inh: 0; rRNA inh HTS OD600: -5; rRNA inh HTS RFP: -0.5

Continued.
How did c1ccc(-c2cnnn2-c2ccccc2)cc1 do in these assays?
A1 inh: 1.1; RanGTP-Imp inh: -2.9; Beta apoptosis: -7; AF4-AF9 inh: -4.0; Calb FLC: -1; rRNA inh HTS: 6; T cruzi inh: -7; rRNA inh HTS OD600: 1; rRNA inh HTS RFP: 0.2

How did O=C(Nc1ccccc1)Nc1ccc(Cl)c(S(=O)(=O)N2CCOCC2)c1 do in these assays?
A1 inh: 1.2; RanGTP-Imp inh: -4.3; Vif A3G: -1%; Beta apoptosis: -1; AF4-AF9 inh: 1.1; Calb FLC: -10; rRNA inh HTS: -20; T cruzi inh: -1; rRNA inh HTS OD600: -12; rRNA inh HTS RFP: -1.0

How did CC(C)N(Cc1nc(-c2ccccc2)no1)C(=O)c1ccc(Cl)cc1 do in these assays?
A1 inh: 0.9; RanGTP-Imp inh: inconclusive; Vif A3G: 5%; Beta apoptosis: 31; AF4-AF9 inh: 2.6; Calb FLC: 1; rRNA inh HTS: -1; T cruzi inh: 15; rRNA inh HTS OD600: -33; rRNA inh HTS RFP: -13

Results for O=C(O)c1ccccc1C(=O)N1CCN(c2ccccc2)CC1 ?
A1 inh: 0.2; RanGTP-Imp inh: 4.8; Vif A3G: 4%; Beta apoptosis: -3; Calb FLC: -1; T cruzi inh: 3

How did CCN(C(=O)COC(=O)c1cc(-c2ccc(C)o2)nc2ccccc12)C1CCS(=O)(=O)C1 (stereo not given) do in these assays?
A1 inh: 0.5; RanGTP-Imp inh: 1.2; Vif A3G: -4%; Beta apoptosis: -1; AF4-AF9 inh: -3.9; Calb FLC: 7; rRNA inh HTS: 14; T cruzi inh: -14; rRNA inh HTS OD600: 1; rRNA inh HTS RFP: 10.0

What do the screens show for `CCC1=NN2C(=N)/C(=C\c3ccc(OCCOc4ccc(NC(C)=O)cc4)cc3)C(=O)N=C2S1`?
A1 inh: -0.9; RanGTP-Imp inh: 3.8; Vif A3G: -7%; Beta apoptosis: -5; AF4-AF9 inh: -0.6; rRNA inh HTS: 13; T cruzi inh: -6; rRNA inh HTS OD600: 13; rRNA inh HTS RFP: 4.3

How did COc1cccc2c1nc(C)c1cc(C)oc12 do in these assays?
A1 inh: 0.2; RanGTP-Imp inh: 33*; Vif A3G: 1%; Beta apoptosis: 5; Calb FLC: -3; rRNA inh HTS: -5; T cruzi inh: -27; rRNA inh HTS OD600: -4; rRNA inh HTS RFP: -1.9

Results for Oc1ccc(-c2c(-c3ccsc3)sc3ccccc23)cc1 ?
A1 inh: -0.3; RanGTP-Imp inh: -1.5; Beta apoptosis: -5; AF4-AF9 inh: -2.3; Calb FLC: -28; rRNA inh HTS: -22; T cruzi inh: 16; rRNA inh HTS OD600: -56; rRNA inh HTS RFP: 12

What do the screens show for `COc1cc([N+](=O)[O-])ccc1NC(=O)CSc1n[nH]c(C(C)C)n1`?
A1 inh: 0.0; RanGTP-Imp inh: -1.5; Vif A3G: 6%; Beta apoptosis: -3; AF4-AF9 inh: 1.2; Calb FLC: -5; rRNA inh HTS: 11; T cruzi inh: -5; rRNA inh HTS OD600: 1; rRNA inh HTS RFP: 0.8

What do the screens show for `COc1ccc(C(=O)Nc2oc(-c3ccccc3)c(-c3ccccc3)c2C#N)cc1`?
A1 inh: -0.8; RanGTP-Imp inh: 3.6; Vif A3G: 3%; Beta apoptosis: 10; Calb FLC: 9; T cruzi inh: 22

What do the screens show for `COc1ccc(S(=O)(=O)NC2CCc3ccccc32)cc1OC` (stereo not given)?
A1 inh: 0.2; RanGTP-Imp inh: -2.5; Vif A3G: -5%; Beta apoptosis: -2; AF4-AF9 inh: -2.0; Calb FLC: 2; rRNA inh HTS: -3; T cruzi inh: -2; rRNA inh HTS OD600: -1; rRNA inh HTS RFP: 0.5

High-throughput results from PubChem.

Not all compounds are listed, so the mix of outcomes need not match the whole.
